TRPML1 agonist – activates the human TRPML1 channel; Q9GZU1; TRPML1-expressing cells, Ca2+ dye fluorescence, FDSS; host cell line not named in the record; reference of the full effect not given here; activation, % (concentration not given with the values); 0.12% of 410,000 active; AID 624414; in the data active = activation above about 50%; inconclusive = about 30% to 50%; inactive = below about 30%; note: 0% is about no effect; the text of the record puts the active cut at 80%
Target sequence (Q9GZU1 whole entry, looked up): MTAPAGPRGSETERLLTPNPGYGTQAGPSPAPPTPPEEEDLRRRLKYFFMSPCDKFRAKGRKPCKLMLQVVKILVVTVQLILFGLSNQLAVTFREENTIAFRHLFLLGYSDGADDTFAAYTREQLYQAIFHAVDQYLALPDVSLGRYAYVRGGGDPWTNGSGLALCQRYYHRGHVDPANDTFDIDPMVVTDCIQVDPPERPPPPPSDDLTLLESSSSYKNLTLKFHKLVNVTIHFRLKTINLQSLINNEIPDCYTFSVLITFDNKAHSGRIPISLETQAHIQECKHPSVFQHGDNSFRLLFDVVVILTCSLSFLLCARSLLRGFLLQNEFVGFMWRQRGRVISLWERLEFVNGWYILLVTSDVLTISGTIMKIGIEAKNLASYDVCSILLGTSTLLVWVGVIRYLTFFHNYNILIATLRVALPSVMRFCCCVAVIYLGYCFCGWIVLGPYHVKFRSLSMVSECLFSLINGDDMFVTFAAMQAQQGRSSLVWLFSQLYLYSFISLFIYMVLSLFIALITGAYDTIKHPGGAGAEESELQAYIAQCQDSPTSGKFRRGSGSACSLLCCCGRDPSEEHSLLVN
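TRPML1-DL cells, Tet-induced overnight (~16 h, 37 degrees C), loaded 45-90 min at room temperature with Ca8 no-wash calcium dye plus quencher. FDSS fluorescence: 10 s baseline, compound pin-transfer, 110 s agonist read, then EC80 54-4 (4uM final) and 110 s antagonist read.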
PINK1 expr mod – modulators of PINK1 expression | PINK1 immunofluorescence, high-content cytometry, 24 h | Potency, µM (series often up to 76.6 µM), without a hit: top-dose activation (PINK1 increase), most hits filed as activators | AID 624263 | 0.2% of 410,000 active; active = well fitted activation curve with a large enough effect; inconclusive = small, poorly fitted or top-dose-only effect; inactive = flat fitted curve, though single readings scatter; cell line not stated here;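 note: potency is the fitted concentration of half-maximal effect; % of control where 0% means no effect; nearly all actives have a fitted effect of over 65% in size; a mitochondrial uncoupler was the plate control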
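A stable cell line was treated with compounds at 5 concentrations for 24 hours, with CCCP as control. PINK1 levels and mitochondrial localization were measured by immunofluorescence with mitochondrial, cell and nuclear markers after fixation, read by laser-scanning cytometry.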
D2 PAM – positive allosteric modulators of human D2 dopamine receptor. 0.23% of 360,000 active. DiscoveRx D2 beta-arrestin cells, luminescence, 90 min; 100% = 57 uM dopamine signal. potentiation, % (test concentration not listed); active = potentiation of 50% or more; inconclusive = 30% to 50%; inactive = 30% or less;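 note: compound concentration not given in the record; tested on top of an EC20 dose of dopamine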
Target sequence (P14416 whole entry, looked up): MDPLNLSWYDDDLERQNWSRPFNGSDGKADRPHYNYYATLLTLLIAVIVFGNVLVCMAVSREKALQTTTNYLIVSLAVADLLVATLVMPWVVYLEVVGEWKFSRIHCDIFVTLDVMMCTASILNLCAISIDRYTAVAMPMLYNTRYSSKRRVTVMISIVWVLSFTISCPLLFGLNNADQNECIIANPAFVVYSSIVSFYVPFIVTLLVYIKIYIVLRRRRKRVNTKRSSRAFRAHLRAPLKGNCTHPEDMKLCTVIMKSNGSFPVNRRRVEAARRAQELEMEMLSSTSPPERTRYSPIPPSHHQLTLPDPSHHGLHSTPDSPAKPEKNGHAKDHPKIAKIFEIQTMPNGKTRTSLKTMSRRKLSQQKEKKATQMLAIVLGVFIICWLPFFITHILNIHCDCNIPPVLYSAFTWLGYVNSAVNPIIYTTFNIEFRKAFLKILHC
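PathHunter beta-arrestin assay in DiscoveRx D2 cells. Compounds were added with an EC20 of dopamine (50 nM final) for 90 min at 37 deg C. Luminescence was read 1 h after detection reagent, with 57 uM dopamine as the EC100 control.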
D2 ag – activates the human D2 dopamine receptor; P14416; DiscoveRx PathHunter D2 beta-arrestin, luminescence, 90 min; 100% = 57 uM dopamine signal; activation, % (concentration not given with the values); 0.084% of 360,000 active; in the data active = activation above about 40%; inconclusive = about 15% to 40%; inactive = below about 15%; note: compound concentration not given in the record; the text of the record calls up to 30% inactive
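DiscoveRx PathHunter D2 beta-arrestin cells (2,100/well) attached overnight, then compound-stimulated 90 min at 37 C in HBSS/10 mM HEPES/0.1% Tween-20 buffer; beta-galactosidase complementation read by luminescence after 1 h at ambient temperature. Dopamine 57 uM final (EC100) as control.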
CtBP-E1A inh – inhibitors of CtBP/E1A interaction. AID 651724. AlphaScreen GST-E1A/His-CtBP binding, 1536-well; stronger effect = lower value; control for the full effect not named in the record. 0.49% of 340,000 active. activity change, % (concentration not given with the values); in the data active means activity change below about -65%; inconclusive means about -30% to -65%; inactive means above about -30%; note: % is set by controls: 0 for no effect and ±100 for the full control effect
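Protein mix (5X: 125 nM each GST-E1A, His-CtBP) was incubated with pinned compound 2 h at 37 deg C in dark, in 50 mM Tris pH 8.0 buffer with 300 mM NaCl. Glutathione donor and nickel acceptor beads followed; AlphaScreen signal read after 1 h.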
Six1-Eya2 inh – Six1/Eya2 interaction inhibition; Q15475+O00167; AlphaScreen GST-Six1/His-Eya2 binding, biochemical; stronger effect = lower value; control for the full effect not named in the record; activity change, % (test concentration not listed); AID 651725; 0.56% of 360,000 active; in the data active = activity change below about -65%; inconclusive = about -30% to -65%; inactive = above about -30%; note: % is set by controls: 0 for no effect and ±100 for the full control effect; compound concentration not given in the record
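AlphaScreen luminescence read after one hour at 37 °C in darkness. Pin-transferred compounds met GST-Six1 and His-Eya2 protein (5X stock 250 nM/500 nM) plus glutathione donor and Ni-chelate acceptor beads (5X, 50 ug/mL).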
Numbers without * were called inactive; u = inconclusive; x = not tested or not shown; & = joins results of further samples; [ ] = another dose, or the depositor's remark.

Labels used below: A = TRPML1 agonist; B = PINK1 expr mod; C = D2 PAM; D = D2 ag; E = CtBP-E1A inh; F = Six1-Eya2 inh
CCCS(=O)(=O)N1CCc2ccc(NC(=O)c3ccccc3Cl)cc2C1
  A: -0.2 | B: -0.3% | C: 1.1 | D: 5.1 | E: 1.8 | F: -0.2

Cc1ccc(NC(=O)N2CCCC2C(=O)Nc2ccc3c(c2)OCO3)cc1 (stereo unspecified)
  A: -0.1 | B: 0.0% | C: -4.6 | D: 8.3 | E: 1.3 | F: -2.7

CN=Cc1cc(-c2ccccc2)sc1O
  A: 1.1 | B: x | C: -29.6 | D: -0.5 | E: 6.3 | F: -11.8

Brc1ccc(-c2nc(-c3ccncc3)no2)o1
  A: 0.0 | B: -2.8%[38.3 µM] | C: 1.7 | D: 2.6 | E: -0.5 | F: 5.1

Cc1ccc(NC(=O)O/N=C/c2ccc(N(C)C)cc2)cc1
  A: 0.7 | B: 2.1% | C: -3.4 | D: 0.7 | E: -8.4 | F: -20.6

COCCN=c1scc(C)n1/N=C/C1CC2C=CC1C2 (stereo unspecified)
  A: -0.2 | B: 4.1% | C: -18.6 | D: 0.0 | E: 0.0 | F: -13.5

CCC(Cc1ccccc1)NC(=O)c1ccc2nc(N3CCOCC3)sc2c1 (stereo unspecified)
  A: -0.8 | B: 1.1% | C: 2.5 | D: -0.3 | E: 4.7 | F: -8.9

CSc1nc2ccccc2cc1/C=C(\C#N)c1ccccc1
  A: 1.7 | B: 6.2% | C: -8.2 | D: -2.4 | E: 16.6 | F: 12.7

O=C(Nc1ccc(C(=O)O)cc1)/C(=C\c1ccc2c(c1)OCO2)NC(=O)c1ccccc1
  A: 1.1 | B: -1.7% | C: -7.6 | D: -7.6 | E: -7.0 | F: -14.3

COc1cccc(C(=O)Nc2ccc(NC(C)=O)cc2)c1
  A: -0.5 | B: 3.3%[38.3 µM] | C: 3.5 | D: -1.2 | E: 6.0 | F: -0.8

CC1=C(C(=O)N(C(C)C)C(C)C)CC(CC(=O)NCc2cccc3ccccc23)C(=O)N1Cc1ccccc1 (stereo unspecified)
  A: 0.1 | B: 0.7% | C: -12.2 | D: -5.4 | E: -13.0 | F: 0.7

Cc1cc(C)cc(-n2c(N)c(C(=O)Nc3c(C)n(C)n(-c4ccccc4)c3=O)c3nc4ccccc4nc32)c1
  A: -0.3 | B: 0.6% | C: -6.0 | D: -3.7 | E: -2.5 | F: -3.0

C=CCOc1ccc(C[C@H](N)C(=O)NC[C@H]2O[C@@H](n3cnc4c(N)ncnc43)[C@H](O)[C@@H]2O)cc1
  A: -0.5 | B: 2.9% | C: -4.1 | D: -1.1 | E: 2.7 | F: -9.8

NC(=O)CSc1nnc(-c2cc(-c3ccc(Cl)cc3)nc3ccccc23)o1
  A: 0.0 | B: 1.5% | C: -4.4 | D: -2.7 | E: 27.0 | F: 5.5

O=C(CCCn1cncn1)N1CCCC(N2CCN(c3ccccc3F)CC2)C1 (stereo unspecified)
  A: -0.4 | B: -0.5% | C: -17.0 | D: -2.9 | E: 0.4 | F: 4.7

CC[C@]12c3[nH]c4cc(CCC(=O)N(C)C)ccc4c3CCN1C(=O)[C@@H](CC(=O)NCCCN(C)C)C[C@@H]2C(=O)N1CCN(C(=O)c2ccco2)CC1
  A: -0.2 | B: -0.4% | C: -1.3 | D: -1.5 | E: -21.1 | F: 2.9

COc1ccc(OCC(=O)N(Cc2ccco2)C2CCS(=O)(=O)C2)cc1 (stereo unspecified)
  A: -0.5 | B: 0.2% | C: -6.6 | D: -6.6 | E: -20.7 | F: 8.4

O=C(C[n+]1cc(-c2ccc(Cl)c(Cl)c2)n2c1CCC2)N1c2ccccc2Sc2ccccc21
  A: 2.1 | B: 9.7% | C: -30.7 | D: -4.4 | E: u | F: -24.0

Cc1cc(C(=O)N2CCN(C(=O)C3CCCO3)CC2)no1 (stereo unspecified)
  A: 0.3 | B: 2.8%[38.3 µM] | C: -2.5 | D: -1.9 | E: -2.2 | F: 4.4

COc1cc(Cn2c(-c3nonc3N)nc3ccccc32)ccc1C
  A: 1.6 | B: 2.1% | C: -2.2 | D: -4.4 | E: 2.2 | F: -1.5

CCOC(=O)COc1ccc(S(=O)(=O)NCC2CCCO2)cc1 (stereo unspecified)
  A: 0.6 | B: 22.4%[38.3 µM] | C: -6.9 | D: -0.4 | E: -14.3 | F: 1.4

O=C1NC(CCc2ccccc2)C(=O)N1Cc1ccc(Br)cc1 (stereo unspecified)
  A: 3.1 | B: 5.0% | C: -16.7 | D: 0.9 | E: 22.9 | F: 0.8

CCCCN(C)C(=O)CS(=O)(=O)Cc1nc(-c2cccc(OC)c2)oc1C
  A: -0.2 | B: -0.4% | C: -2.9 | D: -6.4 | E: 2.3 | F: 0.2

Cc1cc(C)n2ncc(S(=O)(=O)c3ccccc3)c2n1
  A: -0.3 | B: 1.4% | C: -3.9 | D: -5.9 | E: -1.3 | F: 1.2

CN(C(=O)COC(=O)CCC(=O)c1ccccc1)c1c(N)n(Cc2ccccc2)c(=O)[nH]c1=O
  A: -0.3 | B: 0.5% | C: -28.3 | D: -6.0 | E: 0.0 | F: 23.5

CN(C(=O)c1cc2c(s1)-c1ccccc1S(=O)(=O)C2)c1ccccc1F
  A: 1.4 | B: -1.1% | C: -2.6 | D: 10.0 | E: 1.4 | F: -5.2

CCOc1ccc(S(=O)(=O)N2CCC(C(=O)NCc3ccncc3)CC2)cc1C
  A: 0.0 | B: 0.5% | C: -6.2 | D: -1.3 | E: -8.6 | F: -5.4

Cc1ccc(-c2nnc(N3CCOCC3)c3ccccc23)cc1S(=O)(=O)NCc1cccnc1
  A: 1.3 | B: 0.6% | C: -4.0 | D: 2.0 | E: u | F: u

O=C(Oc1cccc(C(=S)N2CCOCC2)c1)c1ccc([N+](=O)[O-])cc1[N+](=O)[O-]
  A: -0.9 | B: 3.7% | C: u | D: u | E: 5.5 | F: -68.8*

Cc1cc(NC(=O)Cc2cccs2)nn1CC(=O)NCc1ccco1
  A: -0.3 | B: 2.0% | C: 0.8 | D: -0.5 | E: -4.8 | F: 6.5

CCN(CC)c1ccc(/C=N/Nc2nc(C)cc(=O)[nH]2)c(O)c1
  A: 2.3 | B: 2.1% | C: u | D: 14.8 | E: -98.3* | F: -92.2*

COc1ccc(-c2cc(C(=O)Nc3sc4c(c3C#N)CCCC4)c3ccccc3n2)cc1
  A: 0.5 | B: 15.6% | C: -22.6 | D: -9.4 | E: -2.8 | F: 7.1

Fc1ccc(-c2nc3ccc(Br)cn3c2Cc2cccc(Cl)c2)cc1
  A: -0.2 | B: 21.2% | C: -4.7 | D: 3.7 | E: 11.1 | F: 1.9

FC(F)(F)c1ccccc1/C=N/n1c(COc2ccccc2)n[nH]c1=S
  A: 1.1 | B: 5.1% | C: -8.7 | D: -10.9 | E: 0.0 | F: 3.5

CCN(CC)S(=O)(=O)c1ccc(NC(=O)Cn2c(=O)oc3ccccc32)cc1
  A: -0.4 | B: 2.1% | C: -3.8 | D: -0.7 | E: 8.6 | F: 2.5

CN(C(=O)COC(=O)c1cc([N+](=O)[O-])ccc1N1CCOCC1)C1CCCCC1
  A: 0.1 | B: -1.3% | C: -8.3 | D: -1.2 | E: 2.4 | F: 21.0

CN(CC(=O)N1CCc2ccccc21)S(=O)(=O)c1ccc(Cl)cc1
  A: 2.8 | B: 2.1%[38.3 µM] | C: -13.0 | D: 1.2 | E: 0.0 | F: 1.1

CSc1ccccc1C(=O)Nc1cccc([N+](=O)[O-])c1C
  A: 0.4 | B: 2.3% | C: -3.9 | D: 0.3 | E: 3.0 | F: -3.5

Cc1ccc(S(=O)(=O)N2CCN(C(=O)CN3CCOCC3)C2C(C)C)cc1 (stereo unspecified)
  A: -0.5 | B: -2.6% | C: 0.2 | D: -1.8 | E: -1.5 | F: 4.6

CC(OC(=O)c1cccc(S(=O)(=O)N(C)C)c1)C(=O)NCc1ccc2c(c1)OCO2 (stereo unspecified)
  A: -0.3 | B: 2.8% | C: 9.9 | D: 5.0 | E: 11.7 | F: 4.1

O=C(NCc1ccc(Cl)cc1)C1=Cc2cc(Cl)ccc2OC1
  A: 3.2 | B: 7.8% | C: -11.5 | D: -5.4 | E: 6.0 | F: 10.9

COc1cc2c(cc1OC)/C(=C/C(=O)N1CCOCC1)NC(C)(C)C2
  A: 1.4 | B: -1.5% | C: -15.9 | D: 1.9 | E: -4.4 | F: 4.5

C=CCn1c(SCCCC)nc(O)cc1=O
  A: 27.6&20.6 | B: 2.3%&-1.3% | C: -7.4&-3.4 | D: -1.8&-15.9 | E: 2.1&2.8 | F: -2.1&1.1

COc1ccc(OC)c(-c2csc(NC(=O)CSc3ccc(Br)cc3)n2)c1
  A: -0.2 | B: 2.8% | C: 2.4 | D: 2.5 | E: -4.1 | F: -12.6

Cc1onc(-c2ccccc2Cl)c1C(=O)NC(=S)Nc1ccc(C(C)C)cc1
  A: 0.4 | B: 5.1% | C: -22.6 | D: -6.3 | E: x | F: -2.2

COc1ccnc(Oc2ccccc2)c1C(=O)N/C=N/OCc1ccc(F)cc1Cl
  A: 5.3 | B: x | C: 12.6 | D: 0.3 | E: 54.2 | F: 28.8

C/C(CC(=O)Nc1ccccc1Br)=N\NC(=O)C(=O)N1CCCC1
  A: 3.2 | B: -2.5% | C: -2.0 | D: 0.2 | E: -0.5 | F: 5.5

COc1ccc(C(=O)NCCCC2CCCC2)cc1OC1CCN(C(C)C)CC1
  A: -0.4 | B: 4.4% | C: -21.5 | D: -1.4 | E: 2.6 | F: -0.8

Cc1ccc(NS(=O)(=O)c2cccc(C(=O)N3CCCCC3)c2)cc1
  A: 3.3 | B: -1.0% | C: -6.6 | D: 0.4 | E: -3.7 | F: -1.4

COc1ccc(OC)c(C2N(c3ccccn3)C(=O)C3CCCN32)c1 (stereo unspecified)
  A: 1.0 | B: 0.6% | C: -3.5 | D: 1.1 | E: 6.8 | F: 4.7

COc1cc(OC)cc(-c2cc3nc(C)c(CCC(=O)NC(C)CCc4ccco4)c(C)n3n2)c1 (stereo unspecified)
  A: 0.4 | B: 3.5% | C: -7.8 | D: -2.0 | E: u | F: u

Cc1nnc(NC(=O)CCC(=O)NCc2cccs2)s1
  A: 0.2 | B: -4.5% | C: -3.2 | D: -0.9 | E: -18.9 | F: 3.0

Record cards (already shown). Screens in order: TRPML1 agonist	PINK1 expr mod	D2 PAM	D2 ag	CtBP-E1A inh	Six1-Eya2 inh
Shown for O=C(Oc1cccc(C(=S)N2CCOCC2)c1)c1ccc([N+](=O)[O-])cc1[N+](=O)[O-] → -0.9	3.7%	u	u	5.5	-68.8*
Shown for C/C(CC(=O)Nc1ccccc1Br)=N\NC(=O)C(=O)N1CCCC1 → 3.2	-2.5%	-2.0	0.2	-0.5	5.5
Shown for Cc1nnc(NC(=O)CCC(=O)NCc2cccs2)s1 → 0.2	-4.5%	-3.2	-0.9	-18.9	3.0
Shown for O=C(NCc1ccc(Cl)cc1)C1=Cc2cc(Cl)ccc2OC1 → 3.2	7.8%	-11.5	-5.4	6.0	10.9
Shown for Cc1ccc(NS(=O)(=O)c2cccc(C(=O)N3CCCCC3)c2)cc1 → 3.3	-1.0%	-6.6	0.4	-3.7	-1.4

Compound activity as filed in PubChem BioAssay.
